Sfp inh: qHTS Assay for Inhibitors of Bacillus subtilis Sfp phosphopantetheinyl transferase (PPTase); 4'-phosphopantetheinyl transferase ffp (Bacillus subtilis), Q9F4F7; Biochemical Sfp PPTase activity, qHTS; Potency, µM, for inactives: max response, negative = inhibition, actives largely listed as inhibitors; 310,000 compounds, 3.5% hits; AID 1490, 2009; active = well fitted inhibition curve with a large enough effect; inconclusive = small, poorly fitted or top-dose-only effect, or another doubt; inactive = no such curve, though single readings can be large or run the other way;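 note: the enzyme is Sfp with the accession as filed and its product quenches rhodamine fluorescence; potency is the fitted concentration of half-maximal effect; 0% = enzyme reaction without inhibitor and -100% = no enzyme wells; top concentration of the series not given in the record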
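Fluorescence-quenching assay: 15 nM Sfp-PPTase preincubated 15 min at room temperature with compound, then 5 uM rhodamine-CoA and 12.5 uM BHQ-2-labelled YbbR peptide added. Fluorescence (ex 525/em 598 nm) read at start and after 30 min; difference gives rate.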
Menin MLL FP FL: qHTS Assay for Inhibitors Targeting the Menin-MLL Interaction in MLL Related Leukemias: Competition With Fluorescein Labeled MLL-derived Peptide; Fluorescence polarization, fluorescein-MLL peptide displacement from menin; FP activity change, % at 61.4 µM; 290,000 tested, under 10 active; inconclusive = falling polarisation curve, or a change in total fluorescence; inactive = total fluorescence flat and polarisation flat or rising; no compound was filed as active; the % refers to the polarisation; negative = inhibition;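 note: % of control where 0% means no effect; inhibitors lower the polarisation; unlabelled MLL peptide was the positive control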
An asterisk follows results filed as active; ? = inconclusive; & = joins results of further samples; [ ] = dose if it differs, or a comment. Only part of the results is shown (hit frequency here may not be typical).

Molecule | Sfp inh | Menin MLL FP FL
CCCCCCCCCCCCCCCCOCC(CO)OC(C)=O (stereo unspecified) | 13.1%&-4.0% | -5.4
COc1ccc(C2=Nn3c(nnc3-c3cc(OC)ccc3OC)SC2)c(OC)c1 | -21.4% | -3.3
CC(C)CO/N=C1/C[C@@H](O)[C@@H](O)[C@@H]2[C@@H]3C(=O)N(C4CCCCC4)C(=O)[C@H]3CC[C@@H]12 | 18.7% | -0.7[11.7 µM]
COC(=O)NC(/C(C(=O)OC)=C(\C)NCc1ccccc1)c1cccc(C)c1 (stereo unspecified) | 9.8% | -1.4[11.7 µM]
CCCCCCCC/C=C\C/C=C\C/C=C\CCCC(=O)NCCO | 18.7%&-21.6% | 4.1
CCCC1([C@H](O)C/C=C/[C@H]2[C@H](O)CC(=O)[C@@H]2CCCCCCC(=O)OC)CCC1 | -14.3% | 1.9
CCC(=O)NCCCC[C@H](NC(=O)OCc1ccccc1)C(=O)Nc1ccc2c(C)cc(=O)oc2c1 | 5.9% | 10.0
COCCN=C1OC(=O)N2C(=O)C3=C4C(C[C@H]5C(=O)N(CC(=O)OC)C(=O)[C@H]5[C@H]4[C@@]12Cc1ccccc1)[C@H]1C(=O)N(CC(=O)OC)C(=O)[C@H]1[C@H]3C (stereo partly specified) | 6.6% | -10.2
Cc1c[nH]c(=O)n(CCCN2CCN(c3ccccc3OCC(F)(F)F)CC2)c1=O | -5.8% | -10.4
CC[C@H](C)[C@H](NC(=O)OCC1c2ccccc2-c2ccccc21)C(=O)O | -17.4% | ?
CCCCc1ccc2nc(NC(=O)OC)[nH]c2c1 | 22.2% | 2.7[24.8 µM]
CCN(CC)CCCC(C)Nc1nc(C)cc(Nc2ccc3nc(C)cc(N)c3c2)n1 (stereo unspecified) | -0.3% | -16.1
Cc1nc(N2CCOCC2)c2nc(-c3ccccc3)n(CCCN3CCCCC3C)c2n1 (stereo unspecified) | 19.4% | -0.5
COc1cccc(CS(=O)(=O)c2nnnn2-c2ccc(F)cc2Br)c1 | -2.7% | 0.6
CC(C)=CCC/C(C)=C/CC/C(C)=C/CC/C(C)=C/C(=O)O | 4.4% | 0.5
O=c1cc(N2CCNCC2)oc2c(-c3ccccc3)cccc12 | -1.1% | 2.4
CCCC(O)C(CC)CO (stereo unspecified) | 14.8% | -0.9
C[C@@H]1/C=C\CC(=O)OC[C@H](C)C(=O)N[C@@H](C)C(=O)OC1 | -0.2% | -2.5[11.7 µM]
O=C1[C@H]2[C@H]3[C@H](O)[C@H](O)C/C(=N/OC[C@@H](O)COCc4ccco4)[C@H]3CC[C@@H]2C(=O)N1C[C@@H]1CCCO1 | -9.8% | 4.5[11.7 µM]
Oc1ccc(Cl)c2c1CCC2 | 20.6% | 5.1
CC(C)C[C@@H](CC(=O)N[C@H](CC(=O)N[C@@H]1CCCC[C@H]1C(=O)N[C@H](CC(=O)N[C@@H](CCC(=O)O)CC(=O)O)Cc1c[nH]c2ccccc12)C(C)C)NC(=O)[C@@H]1CCCC[C@H]1N | 7.1% | -9.0
N[C@@H]1CCN(O)C1=O | -27.9%&-19.1% | 3.4&-8.5
COC(=O)[C@H]1[C@H]2C[C@@H]3c4[nH]c5ccccc5c4CCN3C[C@H]2C[C@@H](OC(=O)c2cc(OC)c(OC)c(OC)c2)[C@@H]1OC | 29.4% | ?
COC(=O)c1ccc(C(/C=C/[C@@H](C)C(=O)NCc2cc(C)n(C)n2)NC(=O)OCc2ccccc2)cc1 (stereo partly specified) | 13.4% | 0.7
COC(=O)C[C@H]1c2ccccc2[C@H]2C(=C[C@@H](C)[C@H]3C(=O)N(O)C(=O)[C@H]32)N1C(=O)OC | 9.7% | 4.2[11.7 µM]
CC(=O)O[C@@]1(C(C)=O)CCC2C3C=C(Cl)C4=CC(=O)CC[C@]4(C)C3CC[C@]21C (stereo partly specified) | -9.8% | 1.8
COc1ccccc1C1OC(=O)CC1C(=O)OC[C@@H]1CCCN2CCCCC12 (stereo partly specified) | 33.9%[activator] | 1.6
COc1c2c(nc3ccccc13)O[C@H]([C@@](C)(O)CO)C2 | 7.6% | 2.4[24.8 µM]
Fc1ccc(C2=NCCC(c3ccccc3)O2)cc1 (stereo unspecified) | 1.4% | -2.6[94.6 µM]
COC(=O)[C@@H](NC(=O)O[C@@H]1C(=O)c2cc(OC)ccc2O[C@H]1c1cccc(OC)c1)C(C)C | -18.2% | -0.3

Nothing new here: 2 of the compounds above.
Molecule | Sfp inh | Menin MLL FP FL
O=c1cc(N2CCNCC2)oc2c(-c3ccccc3)cccc12 | -1.1% | 2.4
CCCC(O)C(CC)CO (stereo unspecified) | 14.8% | -0.9

Other structures
Molecule | Sfp inh | Menin MLL FP FL
Cc1cc(O)c2ccccc2c1O | -8.3% | 7.1
CC(C)O | 17.4% | -1.5
COC(=O)C1(Cc2ccccc2)C2c3cc(C(=O)N4CCCC4)n(Cc4ccc(OC(F)(F)F)cc4)c3CC2CN1C(=O)c1ccccc1 (stereo unspecified) | -3.8% | 6.9
CC(=O)OC1CC2C(C)(C)C(O)CCC2(C)C2CC[C@]3(C)C(=CC(=O)OC3c3ccoc3)C12C (stereo partly specified) | -5.4% | 1.5
C[C@@H](C[N+](C)(C)C)OC(N)=O | 6.1% | -0.1[24.8 µM]
COc1c(OC)c2occc2c2oc(=O)ccc12 | -2.9% | 1.3
C=CCCCCCCCCCCCC(O)CC(O)COC(C)=O (stereo unspecified) (tested in a mixture with another compound) | 21.8% | 0.4
O=C(O)c1ccc2c(c1)C(=O)N([C@H](Cc1ccc(F)cc1)C(=O)O)C2=O | 5.6% | 0.4
C[C@H](CCC(=O)O)[C@H]1CC[C@@H]2[C@H]3[C@@H](C[C@@H](O)[C@]21C)[C@]1(C)CC[C@H](O)C[C@@H]1C[C@@H]3O | 6.6% | 3.2
CC/C=C\C/C=C\C/C=C\C/C=C\C/C=C\C/C=C\CCC(=O)O[C@H](COCCCCCCCCCCCCCCCC)COP(=O)([O-])OCC[N+](C)(C)C | 2.6% | 1.1
COC(=O)[C@H](Cc1ccccc1)NC(=O)O[C@@H]1C(=O)c2ccc(OC)cc2O[C@H]1c1ccc2c(c1)OCO2 | -6.8% | -4.2
COC1C(O)COC1/C=C/c1ccccc1 (stereo unspecified) | 7.4% | 0.2[11.7 µM]
C=C1C2=CC(=O)OC(c3ccoc3)[C@]2(C)CCC1[C@]1(C)C=CC(=O)C(C)(C)C1CC(=O)OC (stereo partly specified) | -8.8% | 4.2
Cc1ccc2oc(=O)c3c4cc(O)c(O)c(C)c4oc3c2c1 | 15.2% | -1.0
O=C1CCCC=C1[C@H](O)CCCCBr | 0.9% | -3.8[11.7 µM]

Brought forward from above: 2 entries, then new ones.
Molecule | Sfp inh | Menin MLL FP FL
Cc1ccc2oc(=O)c3c4cc(O)c(O)c(C)c4oc3c2c1 | 15.2% | -1.0
O=C1CCCC=C1[C@H](O)CCCCBr | 0.9% | -3.8[11.7 µM]
COC(=O)CNC(=O)[C@@]1(Cc2ccccc2)C=C[C@@H](C)N1C(=O)c1ccccc1 | 17.1% | -8.7
COCCNC(=O)C1(CC(C)C)C=CCN1C(C)=O (stereo unspecified) | 10.3% | 2.1
COc1cccc(-c2cc(=O)c3cc(NC(=O)c4ccc(C)cc4)ccc3[nH]2)c1 | 1.0% | -1.0
COC(=O)[C@@H]1C2CC3c4[nH]c5cc(OC)ccc5c4CCN3CC2C[C@H](OC(=O)c2cc(OC)c(OC)c(OC)c2)C1OC (stereo partly specified) | -16.5% | ?
O=C(NCCc1c[nH]c2ccccc12)[C@H]1C[C@@H]1[C@H](NP(=O)(c1ccccc1)c1ccccc1)c1ccccc1 | 16.5% | -5.1
CCOC(=O)N/N=C1/C[C@@H](O)[C@@H](O)[C@@H]2[C@@H]3C(=O)N(Cc4ccccc4)C(=O)[C@H]3CC[C@@H]12 | 23.6% | -1.0[11.7 µM]
COc1cc2c(cc1OC)C(C(=O)c1ccc(OC)c(OC)c1O)=NCC2 | -1.7% | -4.9
CC(C)C[C@@H](CC(=O)N[C@@H](CCCN)CC(=O)N[C@@H]1CCNC[C@H]1C(=O)N[C@H](CC(=O)N[C@@H](CCC(=O)O)CC(=O)O)CC(C)C)NC(=O)[C@@H]1CNCC[C@H]1N | -16.9% | 4.2
COP(=O)(OC)OC(c1ccc(Cl)cc1)P(=O)(OC)OC (stereo unspecified) | 24.0% | -3.0
CCCCCCCCCCCCCCCCOCC(CO)OC (stereo unspecified) | 14.5%&22.2% | -3.5
Cc1ccc(S(=O)(=O)N[C@H]2COC(=O)[C@@H](C)COC(=O)C/C=C\[C@H]2C)cc1 | 3.4% | -2.7[11.7 µM]
C#C[C@]1(O)CC[C@@H]2[C@H]3CCC4=CCCC[C@@H]4[C@@H]3CC[C@@]21C | 12.7% | -2.6[24.8 µM]
NCCCCCCCCCCNCCCN | 30.0% | -0.3
CCCCCC/C=C\CCCCCCCc1cccc(O)c1C(=O)O | 9.0% | -7.7
C#CCCCO/N=C1/C[C@@H](O)[C@@H](O)[C@@H]2[C@@H]3C(=O)N([C@@H](C)c4ccccc4)C(=O)[C@H]3CC[C@@H]12 | 12.8% | -4.1[11.7 µM]
CC(C)=NO[C@@H](C)CN1CCCc2nc(C)c(C)cc21 | -1.7% | -1.0[11.7 µM]
Cc1cccc(C[C@H](C(=O)O)N2C(=O)c3ccc(C(=O)O)cc3C2=O)c1 | 35.0%[activator] | -0.6
COC(=O)[C@@]1(Cc2ccc(F)cc2)[C@H]2c3cc(C(=O)N(C)C)n(CCCNc4ccc(C(F)(F)F)cc4Cl)c3C[C@H]2CN1C(=O)c1ccccc1 | 20.8% | 4.7
CSCC[C@H](NC(=O)[C@H](Cc1ccccc1)NC(=O)[C@H](Cc1cnc[nH]1)NC(=O)CNC(=O)[C@@H](NC(=O)[C@H](C)NC(=O)[C@H](Cc1c[nH]c2ccccc12)NC(=O)[C@H](CCC(N)=O)NC(=O)[C@@H]1CCCN1C(=O)[C@@H](NC(=O)[C@@H]1CCC(=O)N1)C(C)C)C(C)C)C(N)=O | 1.8% | -1.6
CCCCCC(CC)COC(=O)CC(C(=O)OCC(CC)CCCC)S(=O)(=O)O (stereo unspecified) | -13.1% | -1.0
CC1(C)C=Cc2c(cc3occ(-c4ccc5c(c4)OCO5)c(=O)c3c2O)O1 | 16.3% | -2.4
COc1ccc(O[C@H]2C=C[C@@H](c3ccccc3)O[C@H]2COC(=O)N2CCCCC2)cc1 | -6.9% | 1.8[11.7 µM]
CCn1c(=O)n(C2=C(CO)CN(CC3CCCCCCC3)CC2)c2ccccc21 | -1.0% | -2.4
C=C1C(=O)[C@]23[C@H](O)[C@H]1CC[C@H]2[C@@]12COC3(O)[C@H](O)[C@@H]1C(C)(C)CC[C@@H]2O | 12.6µM* | 1.4
COc1ccc(C)cc1NC(=O)c1cc2cc3ccc(C)cc3nc2o1 | 11.5% | 5.2
CC(C)Cn1nnnc1S(=O)(=O)Cc1ccccc1 | 3.0% | 0.0
COc1cc(C(=O)N2CCOCC2)cc(OC)c1OC | 2.4%&8.4% | -0.9&-4.0
CC(C)(C)NC(=O)[C@@H]1C[C@H]2CCCC[C@@H]2CN1C[C@H](O)[C@H](Cc1ccccc1)NC(=O)[C@@H](CC(N)=O)NC(=O)c1ccc2ccccc2n1 | 24.1% | -1.5[24.8 µM]
CC(=O)OC1CC2C(C)(C)C(=O)C=C[C@]2(C)C2CC[C@@]3(C)C(c4ccoc4)OC(=O)C4O[C@@]43[C@]12C (stereo partly specified) | -9.1% | 1.1
O=C(NCCNC[C@@H](O)COc1ccc(O)cc1)N1CCOCC1 | -32.0%&12.2% | 6.7
CC(C)C[C@@H](CC(=O)N[C@H](CC(=O)N[C@@H]1CCCC[C@H]1C(=O)N[C@H](CC(=O)N[C@@H](CCC(=O)O)CC(=O)O)Cc1ccccc1)C(C)C)NC(=O)[C@@H]1CCCC[C@H]1N | 14.4% | 1.1
COc1ccc(-c2nc3c(c4c2C[C@H](c2ccccc2)OC4)CN(S(=O)(=O)c2ccc(NC(C)=O)cc2)CC3)c(C)c1 | 8.1% | -0.9[11.7 µM]
O=C1CC(c2ccc(O[C@@H]3OC(CO)[C@@H](O)C(O)C3O)cc2)Oc2cc(O)ccc21 (stereo partly specified) | 1.8% | -2.8
CCCCCCCC/C=C\CCCCCCCC(=O)OC[C@@H](O)COP(=O)(O)O | 23.5%&-2.4% | -2.9
CCC1=C(OC(=O)N(CC)CC)N2C(=O)OC(=NCCOC)[C@]2(C)[C@H]2C1=CC[C@H]1C(=O)N(CC)C(=O)[C@H]12 | 18.4% | -3.1
COC(=O)C1=C(C)[C@H](O)[C@@H](C)[C@](C)(c2cc(OC)c(C)c(OC)c2COc2ccccc2)O1 | 8.7% | -1.5

High-throughput results deposited in PubChem BioAssay by National Center for Advancing Translational Sciences (NCATS).
